# ALR H2O2 inh = human ALR oxidase inhibition via reduced H2O2; AID 485317; actives 3.8% (n = 290,000); purified ALR, DTT oxidation, H2O2 HRP-luminol luminescence; inhibition, % (concentration not given with the values);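 active = mean and each replicate at 75% or more; inconclusive = only one of the two met; inactive = neither met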;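 also: stock transfer was 7.5 nL into about 7.5 µL; 0% = neutral wells and 100% = wells with inactivated enzyme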
# Target sequence (P55789 whole entry, looked up): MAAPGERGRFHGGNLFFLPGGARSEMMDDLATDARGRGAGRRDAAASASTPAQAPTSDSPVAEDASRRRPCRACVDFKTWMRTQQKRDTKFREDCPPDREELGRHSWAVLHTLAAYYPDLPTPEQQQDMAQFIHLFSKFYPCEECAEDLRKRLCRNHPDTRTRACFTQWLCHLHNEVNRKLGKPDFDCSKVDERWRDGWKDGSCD
# Calb FLC = C. albicans growth modulation with fluconazole; C. albicans CaCi-2 (fluconazole-resistant clinical isolate) + fluconazole, Alamar Blue growth, 48 h; growth inhibition, % (concentration not given with the values); actives 0.57% (n = 300,000); AID 1979;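 active = most replicates above 75%; inconclusive = exactly half above 75%; inactive = most below 75%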;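 also: all wells also contain fluconazole at 8 µg/ml as a sub-toxic cotreatment; 0% = median of DMSO wells and 100% = median of geldanamycin control wells; wells of about 8 µL received 7.5 nL stock; the first replicate is given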
# LANA-H2A inh = blocks KSHV LANA binding to histone H2A/H2B | Q9QR71 | cell-free LANA-H2A/H2B peptide, fluorescence polarization | inhibition, % (test concentration not listed) | actives 0.6% (n = 320,000); in the data active = inhibition mostly above about 10%, no sharp cut-off; inactive = mostly below about 6.7%;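 also: stock transfer was 7.5 nL into about 10 µL; 0% = median of vehicle wells and 100% = median of positive control wells; one replicate is shown; the record names a cut of 25% in any replicate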
# Vif TR-FRET = HIV-1 Vif–A3G interaction blockers – biochemical, TR-FRET, GST-Vif 1-94, biotin-A3G peptide, dose response retest, primary screen (AID 1117319); actives 0.57% (n = 260,000); inhibition, %; hits with a dose series show IC50 in µM; TR-FRET GST-Vif / biotin-A3G peptide binding; higher % means a stronger effect; test concentration not given here; strong numbers were not always called active;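 active = above the screen mean plus three standard deviations and confirmed in dose response; inconclusive = results disagree or hit not tested in dose response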;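 also: Vif residues 1-94 fused to GST binding biotinylated APOBEC3G peptide 110-148; 0% = full assay without inhibitor and 100% = GST in place of GST-Vif; retest series ran down from 100 µM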
# B2AR ag = agonists of human beta-2 adrenergic receptor inducing internalization; Am2.2-beta2AR cells, FAP receptor internalization, flow cytometry; reference of the scale not given here; response, % (test concentration not listed); actives 0.43% (n = 340,000); AID 504454;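 active = response above a set limit, near 3 SD of response in nonfluorescent compounds, cut at about 42% in these data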;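 also: stock transfer was 100 nL into about 11 µL; a reference agonist was the positive control; negative values mostly stem from fluorescent compounds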
# Target sequence (P07550 whole entry, looked up): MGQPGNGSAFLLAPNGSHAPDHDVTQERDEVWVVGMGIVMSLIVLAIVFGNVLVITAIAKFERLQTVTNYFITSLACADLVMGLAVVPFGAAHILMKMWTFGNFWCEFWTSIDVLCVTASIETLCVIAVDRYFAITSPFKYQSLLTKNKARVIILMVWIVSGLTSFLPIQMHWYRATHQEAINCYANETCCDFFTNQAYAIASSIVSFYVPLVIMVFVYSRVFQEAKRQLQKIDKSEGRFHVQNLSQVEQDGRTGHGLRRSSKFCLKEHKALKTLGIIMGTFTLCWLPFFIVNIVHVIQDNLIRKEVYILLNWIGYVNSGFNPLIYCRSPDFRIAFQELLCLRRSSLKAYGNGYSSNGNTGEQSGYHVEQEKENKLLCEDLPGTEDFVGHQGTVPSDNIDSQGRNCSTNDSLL
# RanGTP-Impb inh = inhibitors of RanGTP-importin-beta interaction, primary screen, biochemical, FRET, CFP-Ran, YFP-importin-beta, homogeneous; cell-free CFP-Ran/YFP-importin-beta FRET ratio; inhibition, % (no concentration beside the values); actives 1.1% (n = 300,000); AID 2216;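 active = most replicates above 15%; inconclusive = exactly half above 15%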;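 also: 0% = DMSO wells and 100% = Ran loaded with GDP instead of GTP; wells of about 40 µL received 100 nL stock; the first replicate is given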
# HNF4A DNA FP = change in binding of human HNF4 alpha to DNA; P41235; HNF4a-FITC DNA binding, fluorescence polarization, 1 h; activity change, % at 10 µM; actives 0.3% (n = 360,000); in the data active = activity change above about 30%, passing the limit was not always enough;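 also: controls were the assay level and a saturating level of protein; the project sought stronger binding though the title names inhibitors; some compounds called inactive have numbers as strong as hits; positive values seem to mean higher polarization but the record does not say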
# Numbers without * were called inactive; ? = inconclusive; . = no result given; & = joins results of further samples.
1: O=C(NCc1ccccc1)C1CC(=O)N(c2ccc(OCC(=O)N3CCOCC3)cc2)C1 (stereo not given)
2: OCCNc1nc(-c2ccccc2)c2cc(Br)ccc2n1
3: CCC(=O)Nc1cccc(NC(=O)COc2ccc(OC)cc2)c1
4: CCN1CCN(C(=O)C2=CC(c3ccc(C)cc3)=NS(=O)(=O)N2C)CC1
5: CN(C)c1ccc(C(CC(=O)O)C(=O)O)cc1 (stereo not given)
6: O=C(Nc1nn(Cc2ccccc2F)cc1Br)c1cccs1
7: Cc1ccc(S(=O)(=O)NCC(=O)OCC(=O)Nc2ccc3c(c2)OCCO3)cc1
8: COCCNC(=O)c1c(CSc2ccc(F)cc2)noc1C(=O)NCc1ccccc1
9: CCOC(=O)N1CCN(c2cc(=O)n(C3CCCCC3)c(=O)[nH]2)CC1
10: CN(Cc1ccc(F)cc1)C(=O)c1cccc(NS(=O)(=O)c2ccccc2)c1
assay / compound,1,2,3,4,5,6,7,8,9,10
ALR H2O2 inh,18,.,.,-13,-5,-1,.,-3,1,0
Calb FLC,8,34,8,-7,36,-8,.,-6,-7,0
LANA-H2A inh,-3.3,0.8,-1.0,1.1,-1.5,1.3,19*,1.8,2.5,-10
Vif TR-FRET,.,-4%,-6%,.,30%,-5%,.,-4%,-1%,.
B2AR ag,-17,-1,-9,2,6,-3,4,4,6,5
RanGTP-Impb inh,1.6,10.0,2.5,?,-0.5,.,.,0.3,19*,2.7
HNF4A DNA FP,-1.2,-7.0,0.2,-3.7,1.6,1.5,-2.2,-0.5,1.2,3.0

11: O=C(Nc1ccccc1)NC1CCN(Cc2ccccc2)CC1
12: CN(C)C(CNC(=O)c1oc2ccccc2c1CSc1ncn[nH]1)c1ccco1 (stereo not given)
13: Cc1c(C=O)c2ccccn2c1C(=O)c1ccc(F)cc1
14: COc1ccc(C2=NN(c3ccccc3)C(c3ccc(OC)c(OC)c3)C2)cc1 (stereo not given)
15: O=C(COC(=O)c1cccc(S(=O)(=O)N2CCOCC2)c1)c1ccccc1
16: Cc1nn(-c2ccccc2)c2c1C(c1ccncc1)C(C#N)=C(N)O2 (stereo not given)
17: COc1cccc(NC(=S)NCCCN2CCOCC2)c1
18: O=C(Nc1ccccc1)C1CC(=O)n2c(nc3ccccc32)N1 (stereo not given)
19: COc1cc(C(c2nnnn2C2CCCC2)N2CCN(C(=O)c3ccco3)CC2)cc(OC)c1OC (stereo not given)
20: Cc1[nH]c2ccccc2c1C(=O)C(=O)N1CCN(c2cccc(Cl)c2)CC1
assay / compound,11,12,13,14,15,16,17,18,19,20
ALR H2O2 inh,-15,12,1,1,-10,6,10,-2,-3,-5
Calb FLC,?,-5,0,5,3,5,-3,11,5,31
LANA-H2A inh,-0.5,-2.7,3.7,-0.2,-0.8,-13,-0.4,-2.3,0.8,-0.6
Vif TR-FRET,12%,-2%,-9%,.,5%,12%,-6%,11%,.,.
B2AR ag,-5,-5,-13,6,0,-1,10,-18,-1,1
RanGTP-Impb inh,?,.,-3.2,1.5,-5.8,-1.3,-0.2,2.7,0.8,-0.2
HNF4A DNA FP,2.2,4.3,0.1,7.3,-1.2,4.5,-2.3,-6.3,1.1,-2.7

21: O=C(Oc1ccc([N+](=O)[O-])cc1)c1cc(-c2ccccc2)nc2ccccc12
22: CC1=C(C(=O)OC2CCCCC2)C(c2cccnc2)n2nnnc2N1 (stereo not given)
23: CC1=NN(c2ccccc2)C(=O)/C1=C/C=C/C=C/N(C)C
24: Cc1ccc(SCc2[nH]nc3c2C2(CCSCC2)C(C#N)=C(N)O3)cc1
25: Cc1nn(-c2ccccc2)c2c1C(c1ccco1)C(C#N)=C(N)O2 (stereo not given)
26: O=C(COC(=O)c1cc(Br)ccc1O)NNC(=O)c1ccc(Cl)cc1
27: CCOC(=O)N1CCN(c2c(-c3ccc(C(C)C)cc3)c(=O)c2=O)CC1
28: CCCC(=O)Nc1nn(CC(C)C)c2nc3cc(C)ccc3cc12
29: CCOC(=O)c1ccc(NC(=O)CN2CCN(C(=O)c3ccco3)CC2)cc1
30: COc1ccc(OC)c(S(=O)(=O)Nc2cccc(C(C)=O)c2)c1
assay / compound,21,22,23,24,25,26,27,28,29,30
ALR H2O2 inh,-4,1,96*,18,-5,-2,17,.,-4,-6
Calb FLC,1,29,-6,10,7,-1,4,12,-2,9
LANA-H2A inh,0.5,1.1,-22,-8.7,1.1,2.6,-2.3,-0.9,1.0,2.0
Vif TR-FRET,2%,-4%,10%,14%,20%,0%,9%,0%,.,-2%
B2AR ag,15,-7,-1,7,7,-5,-2,-2,-6,-1
RanGTP-Impb inh,2.1,5.0,-2.2,0.6,?,1.6,-1.9,28*,-0.3,5.7
HNF4A DNA FP,-0.6,-0.9,190,-1.6,-3.0,-0.5,5.7,-0.9,2.9,3.5

31: COc1ccc(-n2c(SCC(=O)N3CCCCC3)nc3ccccc3c2=O)cc1
32: CCn1c(C2CC(=O)N(c3cc(C)cc(C)c3)C2)nc2ccccc21 (stereo not given)
33: CC(=O)NC(CC(=O)Oc1ccc(C)cc1Br)c1ccccc1 (stereo not given)
34: COc1ccc(-c2cc(C(=O)N/N=C/c3cc(OC)c(OC)cc3OC)c3ccccc3n2)cc1
35: COc1ccc(COC(=O)C2=C(C)NC(=O)NC2c2ccc(O)c(OC)c2)cc1 (stereo not given)
36: O=P(c1ccccc1)(c1ccccc1)C1CCCO1 (stereo not given)
37: COc1cc(C2C3=C(COC3=O)Oc3cc4c(cc32)OCO4)cc(OC)c1OC(C)=O (stereo not given)
38: CC(=O)Nc1ccc(S(=O)(=O)NCc2nc(-c3ccccc3Cl)no2)cc1
39: CN(Cc1ccccc1Br)C(=O)CN1C(=O)NC2(CCCCCC2)C1=O
40: CCC(=O)Nc1ccc(NC(=O)CSc2nnc(-c3ccco3)n2CC)cc1
assay / compound,31,32,33,34,35,36,37,38,39,40
ALR H2O2 inh,.,11,0,8,41,0,.,0,6,.
Calb FLC,-3,2,-23,-4,14,-4,.,3,.,0
LANA-H2A inh,.,-3.4,-4.0,1.7,5.4,3.4,.,-4.4,1.6,3.6
Vif TR-FRET,.,-2%,-3%,.,-2%,-1%,-2%,.,-4%,.
B2AR ag,0,5,6,7,-5,-8,17,-4,-3,-14
RanGTP-Impb inh,1.6,0.6,9.9,0.6,-0.6,.,.,4.6,.,2.1
HNF4A DNA FP,2.0,1.2,-2.7,-3.1,-1.0,-0.2,2.3,1.9,-1.8,-3.2

41: Oc1ccccc1-c1ccn[nH]1
42: CCOc1cc(C(=O)Nc2cc(C)ccc2OC)ccc1OCC(=O)N1CCCCC1
43: CCC(C)c1ccc(OCC(=O)Nc2ccc3c(c2)C(=O)NC3=O)cc1 (stereo not given)
44: CCOC(=O)C1CCCN(C(=O)C2CCN(S(=O)(=O)N3CCC4(CC3)OCCO4)CC2)C1 (stereo not given)
45: CC(=O)c1cccc(NC(=O)C(C)OC(=O)CCCN=C2NS(=O)(=O)c3ccccc32)c1 (stereo not given)
46: CCCC(=O)Nc1ccc(-c2csc(-c3cccnc3)n2)cc1
47: O=S(=O)(NCCN1CCOCC1)c1ccc(Cl)c(Cl)c1
48: O=C(Nc1cc2ccccc2oc1=O)C1CCCCC1
49: Cc1c(Cl)c([N+](=O)[O-])nn1CCCC(=O)NC1CCCCC1
50: O=C(ON=C1CCN(S(=O)(=O)c2ccccc2)CC1)c1cccc(Cl)c1
assay / compound,41,42,43,44,45,46,47,48,49,50
ALR H2O2 inh,11,-6,-5,-4,-4,1,.,-7,-2,0
Calb FLC,.,3,1,4,-1,3,2,-4,4,-10
LANA-H2A inh,2.2,4.2,-4.4,5.6,-1.2,5.6,-2.1,1.0,0.4,0.1
Vif TR-FRET,.,.,.,-1%&-11%,0%,-2%,-3%,-1%,-6%,-4%
B2AR ag,-2,3,0,5,-5,16,2,7,-12,-8
RanGTP-Impb inh,.,7.9,-1.0,0.7,-4.6,4.0,-15,4.2,-0.9,-3.9
HNF4A DNA FP,0.0,-3.5,-3.3,-0.5,-3.8,0.7,3.0,-1.0,-1.3,2.5

51: Cn1cccc1Cc1nnc(SCC(=O)N2CCCc3ccccc32)n1-c1ccc(F)cc1
52: O=C(CN1C(=O)NC2(CCCCCCC2)C1=O)NCc1ccc2c(c1)OCO2
53: Cc1nn(C(C)(C)C)c(NC(=O)c2ccccc2)c1C#N
54: CCOC(=O)C1=C(C)NC(=O)CC1c1cc2c(cc1[N+](=O)[O-])OCO2 (stereo not given)
55: COC(=O)c1nnn(-c2cccc(Cl)c2)c1C(=O)OC
56: COC(=O)C1CCN(CC(=O)Nc2ccccc2Sc2ccccc2)CC1
57: CCS(=O)(=O)N1CCC(NC(=O)c2ccco2)CC1
58: Cc1cccnc1NC(=O)C1CCCN(S(=O)(=O)c2ccc3c(c2)oc(=O)n3C)C1 (stereo not given)
59: O=C(Nc1ccc(Br)cc1F)c1sccc1-n1cccc1
60: CC(=O)N1CCOc2ccc(S(=O)(=O)Nc3cccc(C)n3)cc21
61: NC(=O)c1ccc(/C=N/O)[n+](Cc2ccccc2)c1
assay / compound,51,52,53,54,55,56,57,58,59,60,61
ALR H2O2 inh,19,-2,-9,91*,-8,-5,.,.,-4,0,2
Calb FLC,10,7,5,3,19,8,-5,7,?,-16,-2
LANA-H2A inh,-2.3,0.6,-2.6,5.3,0.0,1.2,-2.4,-0.4,-0.5,-2.4,4.4
Vif TR-FRET,28%,99µM*,.,4%,-11%,0%,9%,3%,0%,.,.
B2AR ag,-5,9,11,4,-1,-2,-2,-13,-7,2,-2
RanGTP-Impb inh,-0.5,-0.1,-5.5,8.7,2.0,-4.0,-0.3,4.4,-1.4,8.3,-1.6
HNF4A DNA FP,2.2,1.2,3.0,-2.2,-3.5,0.3,1.8,-3.6,-2.4,1.4,2.7

# A different layout for part of the listing above:
# Results follow in this order: ALR H2O2 inh, Calb FLC, LANA-H2A inh, Vif TR-FRET, B2AR ag, RanGTP-Impb inh, HNF4A DNA FP
51) Cn1cccc1Cc1nnc(SCC(=O)N2CCCc3ccccc32)n1-c1ccc(F)cc1
    19, 10, -2.3, 28%, -5, -0.5, 2.2
52) O=C(CN1C(=O)NC2(CCCCCCC2)C1=O)NCc1ccc2c(c1)OCO2
    -2, 7, 0.6, 99µM*, 9, -0.1, 1.2
53) Cc1nn(C(C)(C)C)c(NC(=O)c2ccccc2)c1C#N
    -9, 5, -2.6, ., 11, -5.5, 3.0
54) CCOC(=O)C1=C(C)NC(=O)CC1c1cc2c(cc1[N+](=O)[O-])OCO2 (stereo not given)
    91*, 3, 5.3, 4%, 4, 8.7, -2.2
55) COC(=O)c1nnn(-c2cccc(Cl)c2)c1C(=O)OC
    -8, 19, 0.0, -11%, -1, 2.0, -3.5
56) COC(=O)C1CCN(CC(=O)Nc2ccccc2Sc2ccccc2)CC1
    -5, 8, 1.2, 0%, -2, -4.0, 0.3
57) CCS(=O)(=O)N1CCC(NC(=O)c2ccco2)CC1
    ., -5, -2.4, 9%, -2, -0.3, 1.8
58) Cc1cccnc1NC(=O)C1CCCN(S(=O)(=O)c2ccc3c(c2)oc(=O)n3C)C1 (stereo not given)
    ., 7, -0.4, 3%, -13, 4.4, -3.6
59) O=C(Nc1ccc(Br)cc1F)c1sccc1-n1cccc1
    -4, ?, -0.5, 0%, -7, -1.4, -2.4
